Mtb betalactam = beta-lactam sensitization of Mtb H37Rv | inhibition, % at 25 µM | AID 434955 | 330,000 compounds, 0.27% hits | M. tuberculosis H37Rv growth with meropenem, percent inhibition; hits of this screen are not shown here;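 active means about 74% or more and at least 40 points above the plate without the antibiotic, then above 30% in a dose series; inconclusive means first-round hits that could not be retested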;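 further: growth measured after seven days incubation then overnight dye step; 0% = bacteria only wells and 100% = bacteria with antibiotic; twin plates without the antibiotic show which effects depend on it; some results filed as inactive read as strong as hits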
Active calls of the source: *; u = inconclusive.

SMILES	Mtb betalactam
C=CC[C@H](CC(=O)N(CCO)Cc1ccccc1)C(=O)NCCOC(=O)[C@H](CC=C)CC(=O)OC(C)(C)C	-4
Oc1ccc(Cl)cc1CNCc1ccc(Cl)cc1	86
O=C(CN1C(=O)NC2(CCCCCCC2)C1=O)Nc1cccc(Br)c1	8
O=C(CCc1ccc(S(=O)(=O)N2CCOCC2)cc1)OCC(=O)c1ccc(Br)cc1	-3
CCN(CC(=O)Nc1c(F)cccc1F)C(=O)c1csc2c1CCCC2	-12
Cc1ccc(NC(=O)CN2CCCC2c2cccs2)cc1S(=O)(=O)N1CCCCC1 (stereo not given)	-6
O=C(N/N=C/c1ccc(F)cc1)c1cccc(NC(=O)c2ccccc2Cl)c1	8
O=C(OCC(=O)N1CCOCC1)c1cc(S(=O)(=O)N2CCOCC2)c(Cl)cc1Cl	1
CN(CC(=O)Nc1cccc(F)c1)C(=O)Cc1n[nH]c(=O)c2ccccc12	0
O=S(=O)(c1ccc(Br)s1)N1CCN(CCOc2ccccc2)CC1	-3
COc1ccc(NC(=O)Nc2cccc3c2O[C@H](CN(C)C(=O)NC(C)C)[C@@H](C)CN([C@H](C)CO)C3=O)cc1	4
CCOC(=O)[C@H]1[C@H]2COc3ccc(OC)cc3[C@@H]2N2C(=O)CN(Cc3ccccc3)C(=O)[C@@]12C	1
O=C1CC[C@@H](C(=O)O)N1	-5
O=C(Nc1ccccc1O)c1cccc(NC(=O)c2ccco2)c1	-5
CN(CC1COc2ccccc2O1)C(=O)CSc1nncs1 (stereo not given)	-11
CCNC(=O)c1cccc(NC(=O)C2CC(=O)N(CCc3ccccc3)C2)c1 (stereo not given)	1
Cc1cccc(NC(=O)c2nc[nH]c2C(=O)N2CCc3ccccc3C2)c1	5
CC(OC(=O)C1CCN(S(=O)(=O)c2ccc3c(c2)OCCO3)CC1)C(=O)N(C)c1ccccc1 (stereo not given)	-6
CC(=O)Nc1ccc(SC[C@H](Cc2ccccc2)N2CC[C@@H](C(C)(C)C)CCC2=O)cc1	-2
CCCCC[C@@H]1C=C(C(=O)O)[C@H](c2ccc(C#N)cc2)N1S(=O)(=O)c1ccc(C)cc1	1
CC(=O)c1ccc(N2CCN(CC(=O)N(C3CC3)C3CCS(=O)(=O)C3)CC2)c(F)c1 (stereo not given)	-1
CC1CN(C(=O)COC(=O)Cc2c(F)cccc2Cl)CC(C)O1 (stereo not given)	3
CCCCNc1c(-c2ccc(SC(C)CC)c(OC)c2)nc2ccc(Cl)cn12 (stereo not given)	100
COc1ccccc1N(C)S(=O)(=O)c1ccc(C(=O)NC2CCCCC2)cc1	1
COc1ccc(C2(C)NC(=O)N(CC(=O)NC3CC3)C2=O)cc1 (stereo not given)	-5
COc1cc(C(=O)NCC2CCCO2)cc(Br)c1OCc1ccccc1 (stereo not given)	-6
NC(=O)c1c(NC(=O)COC(=O)c2ccc(O)c(Cl)c2)sc2c1CCCC2	98
CCOc1ccccc1C(=O)OCC(=O)NCC1CCCO1 (stereo not given)	-8
COc1cc(/C=C/C(=O)OCC(=O)NCCc2ccc(F)cc2)ccc1OC(F)F	-6
Cc1cc(C(=O)COC(=O)c2n[nH]c(=O)c3ccccc23)c(C)n1C(C)C	-2
Cc1cc(C)c(S(=O)(=O)N2CCN(C3CC(=O)N(c4ccccc4Cl)C3=O)CC2)c(C)c1 (stereo not given)	-5
COc1ccc2sc(-c3ccc(N(C)C)cc3)c(C#CCCO)c2c1	96
Cn1c(=O)c2sccc2n2c(CCCC(=O)NCCc3ccc(S(N)(=O)=O)cc3)nnc12	3
Cc1ccc(S(=O)(=O)N2CCOCC2)cc1NC(=O)COC(=O)c1ccc(Br)cc1	3
Cc1cccc(NS(=O)(=O)c2cccc(C(=O)N3CCC3)c2)c1	2
CCN(C[C@H]1N[C@@](Cc2ccccc2)(C(=O)OC)[C@H]2C(=O)N(Cc3ccccc3)C(=O)[C@@H]12)C(=O)c1ccc(F)cc1	-8
Clc1ccc(C(Cn2ccnc2)OCc2c(Cl)cccc2Cl)c(Cl)c1 (stereo not given)	97
CCCn1c(Cc2ccccc2)nnc1SC(C)C(=O)NC1CC1 (stereo not given)	5
COc1cc(NC(=O)c2ccc(-c3cccc(F)c3)o2)ccc1NC(=O)c1ccccc1Cl	15
CC(=O)c1cccc(NC(=O)c2cccc(NC(=O)c3ccco3)c2)c1	0
COc1ccccc1C(=O)NCCC(=O)NC1CCC(C)CC1 (stereo not given)	4
C[C@H](CO)N1C[C@H](C)[C@@H](CN(C)Cc2ccccc2)Oc2ccc(NC(=O)CCCCCC(=O)Nc3ccccc3N)cc2C1=O	8
CSc1ccc(C(=O)NC2CCSc3ccccc32)cc1 (stereo not given)	3
O=C(C[C@@H]1C/C=C\C[C@@H](Cc2ccc(F)cc2)C(=O)OC[C@H]2CCCN2C1=O)NCCO	-3
CC(=O)O[C@]1(C(C)=O)CC[C@H]2[C@@H]3C=C(C)C4=CC(=O)CC[C@@H]4[C@H]3CC[C@@]21C	2
Cc1ccc(NC(=O)CSc2nncs2)cc1Cl	2
Cn1c(N)c(C(=O)COC(=O)c2ccc(F)cc2Cl)c(=O)n(C)c1=O	-1
CC(=Nc1ccccc1N)c1c(O)n(C)c(=O)[nH]c1=O	-3
O=C(CN1CCN(S(=O)(=O)c2ccccc2)CC1)N1CCc2ccccc21	-3
C=C[C@@H]1c2ccccc2N(S(=O)(=O)c2ccc(C)cc2)[C@H](c2ccc(OC(C)=O)cc2)C1(C#N)C#N	40
CCOC(=O)c1cc(-c2ccccc2C)n(Cc2cc(C)no2)n1	-8
C#CCOCCOCCOCCNc1nc(N2CCN(C(=O)CCCCCCCCCCNC(=O)[C@H](CCCCN)n3cc(CCO)nn3)CC2)nc(N2CCN(C(=O)CCCCCCCCCCNC(=O)[C@H](CCCCN)n3cc(C[C@@H](C)CC)nn3)CC2)n1	98
Cc1csc(CNc2ncnc3ccc(-c4ccc5c(c4)OCO5)cc23)c1	-2
C[C@H](OC(=O)n1ccnc1)[C@@H]1O[C@@]2(C)CCC[C@@H]1O2	-4
COc1cc(OC)cc(-c2c(-c3ccc(F)cc3)c3cc(-c4cccc5[nH]ccc45)ccc3n2C)c1	8
CC1(C)NC(=O)N(CC(=O)Nc2ccc(-n3cnnn3)cc2)C1=O	-7

New compounds follow
SMILES	Mtb betalactam
CC(=O)N1CCN(CCS(=O)(=O)c2ccc(Br)cc2)CC1	-2
O=C(c1ccc(S(=O)(=O)Nc2ccccc2Cl)cc1)N1CCCC1	2
NC(=O)c1ccc(NC(=O)c2ccc(COc3ccc(F)cc3)o2)cc1	5
CC1CCCC(C)N1C(=O)COC(=O)c1n[nH]c(=O)c2ccccc12 (stereo not given)	1
Cc1ccc(S(=O)(=O)NCC(=O)OCC(=O)N(CCC#N)c2ccccc2)cc1	-4
CCOc1ccc(S(=O)(=O)N2CCCCC2)cc1NC(=O)Cc1ccsc1	-3
C=C[C@H](CC(C)C)N(Cc1ccccc1)S(=O)(=O)N(Cc1ccc(OC)cc1)[C@H](C=C)CC(C)C	8
CCN(C[C@H]1N[C@@](Cc2ccccc2)(C(=O)OC)[C@H]2C(=O)N(Cc3ccccc3)C(=O)[C@@H]12)C(=O)Nc1ccc(Cl)cc1	0

Another view of part of the listing above.
CCCCC[C@@H]1C=C(C(=O)O)[C@H](c2ccc(C#N)cc2)N1S(=O)(=O)c1ccc(C)cc1
  Mtb betalactam: 1
CC(=O)c1ccc(N2CCN(CC(=O)N(C3CC3)C3CCS(=O)(=O)C3)CC2)c(F)c1 (stereo not given)
  Mtb betalactam: -1
CC1CN(C(=O)COC(=O)Cc2c(F)cccc2Cl)CC(C)O1 (stereo not given)
  Mtb betalactam: 3

More compounds follow:
SMILES	Mtb betalactam
O=C(Cn1cnc2ccccc21)Nc1ccc2c(c1)OCCCO2	2
O=C(Nc1ccc2c(c1)OCO2)C1CC(c2cccc(Br)c2)=NO1 (stereo not given)	-13
COc1ccc(/C=C/C(=O)Nc2cccc(S(=O)(=O)NC3=NCCCCC3)c2)cc1OC	-3
Cc1cc(C)c(C)c(S(=O)(=O)NCc2ccc(C(=O)N3CCN(C)CC3)cc2)c1C	u
C[C@@H](NC(=O)c1nc[nH]c1C(=O)NCc1ccc(CNC(=O)OC(C)(C)C)cc1)c1ccccc1	68
COc1cccc(C(=O)COC(=O)COc2c(C)cc(C)cc2C)c1	2
O=C(O)/C(=C\c1c(C(=O)O)[nH]c2cc(Cl)cc(Cl)c12)c1ccccc1	-2
COC(=O)[C@H](CCSC)NC(=O)Cn1cnc2c(SC)nc(N)nc21	61
CCc1cc(C(=O)N(C)CC(=O)Nc2c(Cl)cccc2Cl)sc1C	-4
NC(=O)c1ccc(NC(=O)COC(=O)C2CC3C=CC2C3)cc1 (stereo not given)	-3
COc1ccc(C)cc1NC(=O)CCCN1C(=O)NC(C)(C)C1=O	-7
Cc1ccccc1OCC(=O)OCC(=O)Nc1ncc(Cl)c(C)c1Cl	-1
Cc1cc(NC(=O)c2ccccc2C)no1	-2
CN(C(=O)CSc1nnc(-c2ccccc2F)n1N)C1CCCCC1	-4
Cc1c(C(=O)OCC(=O)N2CCCCC2C)oc2ccccc12 (stereo not given)	-9
COc1ccc(NC(=O)Nc2cccc3c2O[C@H](CN(C)S(=O)(=O)c2ccccc2)[C@@H](C)CN([C@H](C)CO)C3=O)cc1	-3
Cc1cc(-n2c(C)cc(C(=O)CSc3nncn3C)c2C)no1	-2
CC(=O)c1cccc(NC(=O)c2ccc(OCc3c(C)noc3C)cc2)c1	9
CCc1sc(C(=O)Nc2ccc(OC)c(S(=O)(=O)N3CCOCC3)c2)cc1C	2
O=C(O)CCC(=O)OCCCc1cc2ccccc2c(=O)o1	-4
Cc1ccccc1Nc1nc(N)nc(COC(=O)c2ccco2)n1	-3
Cc1cccc(C)c1NC(=O)CNC(=O)CCCN1C(=O)c2cccc3cccc(c23)C1=O	-9
COc1ccc(C(C)=O)cc1COC(=O)c1ccc2c(c1)OCCO2	-4
CC1CCCC(C)N1C(=O)COC(=O)c1ccc(Br)c(S(=O)(=O)N2CCOCC2)c1 (stereo not given)	-2

A draw from above in order of formula weight, rising:
SMILES	Mtb betalactam
O=C(O)CCC(=O)OCCCc1cc2ccccc2c(=O)o1	-4
Cc1c(C(=O)OCC(=O)N2CCCCC2C)oc2ccccc12 (stereo not given)	-9
Cc1cc(-n2c(C)cc(C(=O)CSc3nncn3C)c2C)no1	-2
CC(=O)c1cccc(NC(=O)c2ccc(OCc3c(C)noc3C)cc2)c1	9
Cc1cccc(C)c1NC(=O)CNC(=O)CCCN1C(=O)c2cccc3cccc(c23)C1=O	-9
CC1CCCC(C)N1C(=O)COC(=O)c1ccc(Br)c(S(=O)(=O)N2CCOCC2)c1 (stereo not given)	-2
COc1ccc(NC(=O)Nc2cccc3c2O[C@H](CN(C)S(=O)(=O)c2ccccc2)[C@@H](C)CN([C@H](C)CO)C3=O)cc1	-3

(cont.)
SMILES	Mtb betalactam
COc1ccc(CC2c3cc(OC)c(OC)cc3CC[N+]2(C)CCC(=O)OCCCCCOC(=O)CC[N+]2(C)CCc3cc(OC)c(OC)cc3C2Cc2ccc(OC)c(OC)c2)cc1OC (stereo not given)	61
Cc1ccccc1C(C)NC(=O)COC(=O)Cn1cc(C(F)(F)F)ccc1=O (stereo not given)	3
COc1ccccc1C(=O)OCCN=C1NS(=O)(=O)c2ccccc21	3
O=C(NC1CCS(=O)(=O)C1)c1ccccc1Cl (stereo not given)	-5
Cc1ccc([C@H]2C(C(=O)O)=CC[C@@H](c3cccc(C)c3)N2S(=O)(=O)c2ccc(C)cc2)cc1	1
O=C(C[C@@H]1C/C=C\C[C@H](Cc2ccc(F)cc2)C(=O)OCCNC1=O)NCCO	0
COc1ccccc1C(CNc1ncnc2sc(C)c(C)c12)N(C)C (stereo not given)	-6
COc1cc(OC)c(C(=O)OCC(=O)Nc2ccc(N3CCOCC3)cc2)cc1OC	-7
COc1ccc(OCC(=O)OCC(=O)NC2CCCC2)cc1	1
Cc1cccc(N2CCN(C(C)C(=O)N3CCc4ccccc43)CC2)c1C (stereo not given)	0
COCCCN(CC(=O)Nc1ccc(F)cc1)S(=O)(=O)c1cccs1	-5
NS(=O)(=O)c1ccc(CCNC(=O)c2cccc(S(=O)(=O)N3CCCC3)c2)cc1	1
CC(=O)C[C@@H](O)CC(=O)[C@H]1OC(=O)CCCCCCCCc2ccccc21	19
COc1cccc(NC(=O)COC(=O)CCSc2ccccc2)c1	3
COc1ccc(NS(=O)(=O)c2cccc(C(=O)O)c2)cc1S(=O)(=O)N1CCOCC1	-5
COc1ccc(CCNC(=O)CN2C(=O)NC(c3ccccc3)(c3ccccc3)C2=O)cc1	-8
Cc1nnc(SCC(=O)Nc2cccc(Br)c2)s1	0
COc1ccc2c(CC(=O)OCC(=O)Nc3ccc(C)cc3)coc2c1	-5
CCN(C[C@H]1N[C@@](Cc2ccccc2)(C(=O)OC)[C@H]2C(=O)N(C)C(=O)[C@@H]12)C(=O)Nc1ccc(C)cc1	0
CCOC(=O)c1cc(-c2ccccc2C)n(CC2CC(c3ccc(OC)cc3)=NO2)n1 (stereo not given)	-8
Cc1ccc(NC(=O)COc2ccc3c(c2)OCO3)c(C)c1	-7
CC(=O)C[C@H](O)CC(=O)[C@@H]1OC(=O)[C@@H](C)C/C=C\Cc2ccccc21	-12
COC(=O)C1=C(C)NC(C)=C(C(=O)OC)C1C(=O)OCC(=O)c1ccc(Br)cc1	-4
O=C(COC(=O)c1ccccc1F)Nc1ccc(S(=O)(=O)N2CCOCC2)cc1	-3

Assay outcomes (PubChem)

Only part of the results is shown; the hit share may differ from the screen's.
